Source: PubChem (National Center for Advancing Translational Sciences (NCATS))
StopGo RLuc: FMDV 2A StopGo reporter, Renilla signal; AID 1745857; HEK cells with a luciferase reporter of 2A StopGo recoding; Potency, µM (series often up to 57.5 µM), without a hit: at the top dose signal change, negative = less light; 0.32% of 120,000 active; active means well fitted falling curve with a large enough effect; inconclusive means small, poorly fitted or top-dose-only effect; inactive means no such curve, though single readings can be large or run the other way; further: nearly all actives have a fitted effect of over 55% in size; overnight with compound
2A firefly: FMDV 2A StopGo reporter, firefly signal; HEK cells with a luciferase reporter of 2A StopGo recoding; Potency, µM (series often up to 57.5 µM), without a hit: top-dose signal change, negative = less light; 0.23% of 120,000 active; active = well fitted falling curve with a large enough effect; inconclusive = small, poorly fitted or top-dose-only effect; inactive = no such curve, though single readings can be large or run the other way; further: nearly all actives have a fitted effect of over 60% in size; overnight with compound
Starred values were filed as active, the others as inactive; ? = inconclusive; & = joins results of further samples; [ ] = dose if it differs, or a comment. On the % scale 0 is the no-effect control and ±100 the full control effect; potency means the concentration at half of the fitted maximal effect.

SMILES | StopGo RLuc | 2A firefly
CCCN(CCC)CCNC(=O)Cn1ncc2c([nH]c3ccc(C)cc32)c1=O | 1% | 1%
Cc1ccc(S(=O)(=O)Nc2ccc(-c3ccccc3)cc2)cc1 | 318%[activator] | 31%[activator]
COc1cccc(-c2nc(SCC(=O)NC3CCCC3)c(-c3ccc(C)cc3)[nH]2)c1 | 58%[activator] | 5%
CC(C)c1noc(CSc2nc(C3CC3)nc3ccccc23)n1 | ? | ?
CCn1c(SCC(=O)NCc2ccc(C)cc2)nnc1-c1cccs1 | 4% | 4%
O=C(COC(=O)CCC(=O)c1ccc(F)cc1)NC1CCCCCC1 | -7% | -10%
Cc1sccc1/C=N/NC(=O)C1CC1 | 6% | 226%[activator]
CC(=O)Nc1ccc(-c2csc(Nc3ccc(Br)cc3)n2)cc1 | ? | ?
COc1cccc(/C=C/C(=O)c2ccc(O)c(CCCl)c2)c1 | 43%[activator] | 196%[activator]
OC[C@]1(O)OC[C@@H](O)[C@H](O)[C@@H]1O | -4% | -7%
CC(=O)N1CCOc2cc(S(=O)(=O)NCc3ccc(F)cc3)c(C)cc21 | -23% | -3%
COc1cccc(NC(=O)CSc2nc(=O)[nH]c3c2CCCC3)c1 | -9% | -12%
O=c1[nH]c(SCc2ccc(F)cc2)nc2c1cnn2CCO | 8% | 7%
CC(NC(=O)c1ccc(NC(=O)C2CC2)s1)c1ccc(Cl)cc1 (stereo not drawn) | 28% | 2%
CCC(C)(C)C1CCc2c(sc(NC(=O)C(C)(C)C)c2C#N)C1 (stereo not drawn) | -1% | 9%
O=C(Cc1n[nH]c(=O)c2ccccc12)OCC(=O)c1ccc(C2CCCCC2)cc1 | -8% | -6%
COc1ccc2c(c1OC)C(=O)OC2Nc1nc(-c2ccccc2)cs1 (stereo not drawn) | ? | 28µM*
CC1CCN(S(=O)(=O)c2ccc3nc(Nc4ccc(C#N)cc4)ccc3c2)CC1 | 128%[activator] | -8%
Cc1ccc(N2C(=O)c3cccnc3C2Nc2ccc(F)cc2C)cc1 (stereo not drawn) | 0% | -8%
COc1ccc(OCCN2CCN(C(=O)CNC(=O)c3ccc(N4CCCC4=O)cc3)CC2)cc1 | -14% | 7%
Cc1c(C(=O)N(Cc2nc3ccccc3c(=O)[nH]2)C(C)C)oc2ccccc12 | -21% | -20%
COc1ccc(-c2nc(CN3CCN(C(=O)NC(C)C)CC3)c(C)o2)cc1 | 5% | 0%
CCOc1ccc(C(=O)Nc2cc(-c3cn4cccnc4n3)ccc2C)cc1OCC | -16% | -13%
COc1cccc(-c2nc3c(C#N)c[nH]n3c2NC2CCCCC2)c1OC | 3% | -16%
CCC(C)NCc1ccccc1 (stereo not drawn) | 11% | -2%

In the list so far, these contain fluorine.
SMILES | StopGo RLuc | 2A firefly
O=C(COC(=O)CCC(=O)c1ccc(F)cc1)NC1CCCCCC1 | -7% | -10%
CC(=O)N1CCOc2cc(S(=O)(=O)NCc3ccc(F)cc3)c(C)cc21 | -23% | -3%
O=c1[nH]c(SCc2ccc(F)cc2)nc2c1cnn2CCO | 8% | 7%
Cc1ccc(N2C(=O)c3cccnc3C2Nc2ccc(F)cc2C)cc1 (stereo not drawn) | 0% | -8%

Carrying on:
SMILES | StopGo RLuc | 2A firefly
CC1=C(C(=O)Nc2ccccc2)C(c2cccn2C)n2ncnc2N1 (stereo not drawn) | -12% | -21%
Cc1nnc2sc(-c3ccc(CNC(=O)C(C)(C)Oc4ccc(Cl)cc4)cc3)nn12 | -3% | -3%
O=C(O)c1ccc(Cl)c(I)c1 | 19% | 22%
COCCN(Cc1cc2cc(C)ccc2[nH]c1=O)C(=O)c1ccc(OC)c(OC)c1 | -13% | -3%
CC(Sc1n[nH]c(-c2ccccc2)n1)C(=O)Nc1cccc(C(F)(F)F)c1 (stereo not drawn) | -2% | -20%
C=Cc1ccc(CSc2nc(-c3ccc(OC)cc3)nc3c2Cc2c(CO)cnc(C)c2O3)cc1 | -8% | -22%
COc1ccc(/C=C(\C#N)C(=O)Nc2ccccc2C(=O)O)cc1OC(=O)c1ccccc1Cl | 1% | 12%
COc1ccc(NC(=O)CCc2c(C)nc3nc(CNC(=O)OC(C)(C)C)nn3c2C)cc1OC | -10% | -9%
C=CCNc1oc(/C=C/c2ccc(OC)c(OC)c2)nc1C#N | 7% | ?
CCC(=O)C1=C(c2cccc([N+](=O)[O-])c2)N(C(=O)CC)n2c(nnc2-c2ccccc2)S1 | 8% | 0%
COc1ccc(CCNC(=O)c2sc(NC3CC3)nc2C)cc1 | 5% | 77%[activator]
CC1CCCC(NC(=O)/C=C/c2cccc(C#N)c2)C1 (stereo not drawn) | 1% | 82%[activator]
CC(C)c1nnc2ccc(N3CCCCCC3)nn12 | 31%[activator] | 62%[activator]
CCOC(=O)CSc1nc(-c2cccc(C)c2)nc2c1COC(C)(C)C2 | -2% | 3%
Cc1c(F)cccc1NC(=O)C12CC3CC(CC(C3)C1)C2 | 18% | 27%
CCCc1c(C(=O)OCC)nnc2c(-c3ccccc3)c(C)nn12 | 3%&-2% | 0%&0%
CCn1nc(C(=O)N2CCCC(c3nc4ccccc4s3)C2)c2ccccc2c1=O (stereo not drawn) | -11% | -2%
Cc1ccccc1OCc1nc2c3cnn(-c4ccccc4F)c3ncn2n1 | -15% | 63%[activator]
Cc1ccc(C)c(N2CCN(S(=O)(=O)c3ccc4oc(=O)c5ncn(C)c5c4c3)CC2)c1 | -8% | -9%
CCCOc1ccc(NC(=O)Cc2ccccc2)c2cccnc12 | -7% | 9%
COc1ccc(Cn2c(SCC(=O)NCc3ccc(Cl)cc3)nc3ccsc3c2=O)cc1 | -7% | -6%
C[C@@H]1CC[C@H]2[C@@H](C)C(=O)O[C@@H]3O[C@@]4(C)CC[C@@H]1[C@]32OO4 | -20% | -19%
CC1CCCN(S(=O)(=O)c2cc(C(=O)NCCc3ccccc3)n(C)c2)C1 (stereo not drawn) | 10% | 20%
CCc1ccccc1N(CC)C(=O)c1c(C)oc2ncn(C)c(=O)c12 | -4% | -7%
O=C(COc1ccc(Cl)cc1Br)OCC(=O)c1ccc[nH]1 | 25% | 0%

(continued)
SMILES | StopGo RLuc | 2A firefly
COCCNC(=O)c1ccc(-n2c(-c3ccccc3)cc3c2CCCCC3)cc1 | 27% | 28%
COc1ccc(/C=C2/N=C(c3ccc(Cl)cc3Cl)NC2=O)cc1OC | -4% | 14%
CC1(C)CC(=O)C2=C(C1)OC(N)=C(C#N)C2c1ccc(Cl)cc1 (stereo not drawn) | 7% | 1%
O=C(CC1CCCC1)NCc1cccnc1 | 1% | 3%
Cc1ccc(-n2nnnc2SCC(=O)N2CCN(CC(=O)N3CCCC3)CC2)c(C)c1 | -2% | 17%
CCC(NC(=O)/C=C/C(=O)O)c1ccccc1 (stereo not drawn) | 54%[activator] | 43%[activator]
Cc1cc2oc(=O)c(CC(=O)NCCc3ccccc3F)c(C)c2c2occ(C(C)(C)C)c12 | -9% | -4%
O=C(NCc1ccc(C(=O)N2CCCC2)cc1)C1CCCCC1 | 24% | 0%
COC(=O)c1ccc(NC(C)=O)cc1OC | -5% | -12%
CCN(CC)S(=O)(=O)c1ccc2c(c1)N(CC(=O)N1CCN(c3cccc(C)c3)C(C)C1)C(=O)CO2 (stereo not drawn) | -9% | -22%
Fc1ccc(/C=N/Nc2c(Cl)cc(Cl)cc2Cl)cc1F | 24% | 0%
COC(=O)C1CN(Cc2ccc(Cl)cc2)CCS(=O)(=O)N1Cc1cn(Cc2ccc(OC)cc2)nn1 (stereo not drawn) | 15% | 12%
CCOc1ccc(-n2c(CCC(=O)O)ccc2-c2ccc(Br)cc2)cc1 | 6% | -8%
O=C(CNc1ccc(Br)cc1F)N(C1CCCCC1)C1CCS(=O)(=O)C1 (stereo not drawn) | -11% | -9%
CN(Cc1ccc2c(c1)OCO2)c1nc(-c2cccnc2)nc2ccccc12 | ? | ?
CCCOc1ccc(C(=O)Nc2ccc(NC(=O)c3cccc(Cl)c3)cc2)cc1 | -1% | -6%
Cc1ccc(-c2noc(CN(C)C(=O)COc3ccccc3)n2)cc1 | 23% | 0%
Cc1ccc(OCc2nc(-c3ccc(C(=O)N4CCN(c5ccccc5)CC4)cc3)oc2C)cc1 | -6% | -9%
O=C1SCCC1NC(=O)C(Sc1ccccc1)c1ccccc1 (stereo not drawn) | 11% | -15%
O=C(NCc1nc2ccccc2n1Cc1ccccc1Cl)c1ccccc1 | -7% | -22%
COc1ccc2cc(C(=O)NCc3cccnc3-n3cccn3)c(C)nc2c1 | -10% | -12%
COc1ccc2[nH]c(C)c(CCNCCC3=C(C)CCCC3(C)C)c2c1 | ? | ?
NC(=O)CSc1nc2ccc(NC(=O)COc3ccccc3Cl)cc2s1 | 0% | 109%[activator]
COc1cc(OC)cc(C(=O)Nc2ccc3nc4c(c(Nc5ccc(OC)c(OC)c5)c3c2)CCCC4)c1 | -11% | -12%
CC(C)c1ccc2c(c1)NC(c1ccc(F)cc1)=NC(c1cccs1)=N2 | 28% | 72%[activator]

The list goes on:
SMILES | StopGo RLuc | 2A firefly
CCC(C)c1ccc(C(=O)Cn2cnc3c2c(=O)n(C)c(=O)n3C)cc1 (stereo not drawn) | -4% | 6%
CC1=C(C(=O)Nc2cccnc2)C(c2ccc(F)cc2)n2nc(SCc3ccccc3F)nc2N1 (stereo not drawn) | -17% | -5%
Cn1ccnc1SCC(=O)Nc1sc2c(c1C#N)CCC2 | 24% | 96%[activator]
CC(C)(CO)NC(=O)c1cc(C(C)(C)C)cc(C(C)(C)C)c1 | 14% | 7%
CCc1cccc(N2C(=O)CS(=O)(=O)C23C(=O)N(Cc2ccc(Cl)cc2)c2ccccc23)c1 (stereo not drawn) | 53%[activator] | 74%[activator]
CC(=O)N1CCCC1c1nc2ccccc2n1Cc1ccccc1C (stereo not drawn) | -11% | 0%
COC(=O)C1=C(C(=O)c2ccc(C)cc2)C(c2ccc(OC)cc2)n2nnnc2N1 (stereo not drawn) | 19% | 39%[activator]
Cc1ccc(C(=O)c2ccccc2C(=O)OCCCc2ccccc2)cc1C | 48%[activator] | -10%
COC(=O)c1c(NC(=O)c2c(-c3c(Cl)cccc3Cl)noc2C)sc(C)c1C | 8% | 17%
Cc1c(CC(=O)O)c(=O)oc2cc(OCc3ccccc3)ccc12 | -1% | 51%[activator]
Cc1nc2ccc(NC(=O)c3cc4c(s3)CCC4)cc2s1 | 4% | 0%
NC(=O)C1CCN(C(=O)Cc2cccc(C(F)(F)F)c2)CC1 | 1% | -2%
COc1ccc(C(=O)COC(=O)C(Cc2c[nH]c3ccccc23)NC(=O)c2ccc(C(C)(C)C)cc2)cc1 (stereo not drawn) | -8% | -10%

A different layout for part of the listing above:
canonical_smiles: Cc1c(CC(=O)O)c(=O)oc2cc(OCc3ccccc3)ccc12
  StopGo RLuc = -1%	2A firefly = 51%[activator]

canonical_smiles: Cc1nc2ccc(NC(=O)c3cc4c(s3)CCC4)cc2s1
  StopGo RLuc = 4%	2A firefly = 0%

canonical_smiles: NC(=O)C1CCN(C(=O)Cc2cccc(C(F)(F)F)c2)CC1
  StopGo RLuc = 1%	2A firefly = -2%

canonical_smiles: COc1ccc(C(=O)COC(=O)C(Cc2c[nH]c3ccccc23)NC(=O)c2ccc(C(C)(C)C)cc2)cc1 (stereo not drawn)
  StopGo RLuc = -8%	2A firefly = -10%

Random draw from the library; overall some 0.55% were active at least once.
